Vaccinia stage: blocks a specific stage of Vaccinia orthopoxvirus infection | Vaccinia-infected cells, mCherry/Venus stage reporter fluorescence; hits give low values; some inactives read as strong as hits | activity change (mCherry), % (test concentration not listed) | hit rate 0.01% among 89,000 | AID 1053133;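 active = mCherry past -33% and 40 or more points under the early reporter, replicates agreeing; inconclusive = past -33% without that gap or agreement; tested in A549 cells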;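 also: scaled between vehicle wells and reference inhibitor wells; 23 nL library stock went into each well; one replicate is shown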
Vaccinia stage Venus: further read-out of Vaccinia stage, marked with its call; activity change (Venus), %; measured here: Venus reporter, other viral stage;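 negative = less Venus signal; first of two replicates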
Starred values were filed as active, the others as inactive; ? = inconclusive; . = not tested or not shown; & = joins results of further samples. Some of the compounds tested; the hit share may differ from the screen's.

SMILES	Vaccinia stage	Vaccinia stage Venus
O=C(NCC[C@H]1CC[C@H](NC(=O)C2CCOCC2)[C@@H](CO)O1)Nc1ccc(Cl)cc1	2.7	7.7
CO[C@H]1CN(C)C(=O)c2ccc(NC(=O)c3ccc(Oc4ccccc4)cc3)cc2OC[C@@H](C)NC[C@H]1C	?	.
CCCN1[C@H](C(=O)NC2Cc3ccccc3C2)[C@@H](CO)[C@@H]2Cn3c(cccc3=O)[C@@H]21	-6.7	-6.5
O=C(NCC1CC1)[C@H]1[C@H](CO)[C@H]2Cn3c(ccc(-c4cccnc4)c3=O)[C@H]2N1C(=O)NC1CCCC1	0.7	-5.5
C[C@@H]1CN([C@H](C)CO)C(=O)c2cc(NS(=O)(=O)c3cccs3)ccc2O[C@@H](C)CCCCO[C@@H]1CN(C)S(=O)(=O)c1cn(C)cn1	25.7	10.5
CN(C)C(=O)C[C@H]1CC[C@@H]2[C@H](COC[C@H](O)CN2S(=O)(=O)c2ccccc2)O1	14.4	10.2
C[C@@H]1CN([C@H](C)CO)C(=O)c2cc(-c3ccc(F)cc3)cnc2O[C@@H]1CN(C)C(=O)CN(C)C	11.1	12.1
CCS(=O)(=O)Nc1ccc2c(c1)C(=O)N(C)[C@H]1CC[C@H](CC(=O)NCCOC)O[C@H]1CO2	9.8	8.7
C[C@@H]1CN([C@@H](C)CO)C(=O)c2cc(C#CCN(C)C)cnc2O[C@@H]1CN(C)Cc1ccc(C(=O)O)cc1	45.8	14.8
Cc1noc(C)c1S(=O)(=O)N(C)C[C@H]1OCCCC[C@@H](C)Oc2ccc(NC(=O)C3CCCCC3)cc2C(=O)N([C@@H](C)CO)C[C@@H]1C	-13.8	-20.4
CN1CCN(C(=O)C[C@H]2C[C@H]3c4cc(NC(=O)NC5CCCC5)ccc4O[C@H]3[C@@H](CO)O2)CC1	14.6	14.6
COc1ccccc1S(=O)(=O)N[C@@H]1CC[C@H](CCn2cc(C3CCCC3)nn2)O[C@@H]1CO	8.1	-4.2
CCCNC(=O)N1[C@@H](CO)[C@H](c2ccccc2)[C@@H]1CNC(=O)c1cccc(F)c1	-7.2	3.9
COc1ccccc1NC(=O)N[C@H]1CC[C@H](CCNC(=O)Cc2ccccn2)O[C@H]1CO	6.5	3.5
COc1ccc(S(=O)(=O)N2C[C@@H](O)COC[C@@H]3O[C@H](CC(=O)NCCCN(C)C)CC[C@H]32)cc1	0.0	-1.9
C[C@H](NC(=O)C[C@@H]1C[C@H]2c3cc(NC(=O)NC4CCCCC4)ccc3O[C@H]2[C@@H](CO)O1)c1ccccc1	6.6	1.2
COC(=O)[C@H]1[C@H](CO)[C@H]2Cn3c(ccc(C4=CCCCC4)c3=O)[C@H]2N1C(=O)C1CCCC1	11.5	11.3
CN1C(=O)c2cc(NC(=O)C3CC3)ccc2OC[C@@H]2O[C@@H](CC(=O)NC3CCC3)CC[C@H]21	1.1	-10.8
COc1ccc(C#Cc2ccc3c(c2)[C@H]2[C@H](CCN2C(=O)C2CCCCC2)[C@H](CO)N3)cc1	-3.4	-3.1
COc1ccc(CN(C)C[C@H]2OCCCC[C@H](C)Oc3ccc(NC(=O)NC4CCCCC4)cc3C(=O)N([C@H](C)CO)C[C@@H]2C)cc1	?	.
COCC(=O)N(C)C[C@@H]1Oc2cc(C#CC(C)C)ccc2S(=O)(=O)N([C@H](C)CO)C[C@H]1C	7.0	2.3
CC(C)[C@H](C)NC(=O)N(C)C[C@@H]1OCc2ccccc2-c2ccccc2C(=O)N([C@@H](C)CO)C[C@H]1C	11.6	5.2
C[C@@H]1CN([C@@H](C)CO)C(=O)Cc2cc(NS(=O)(=O)c3cccs3)ccc2O[C@H]1CN(C)C	1.1	-1.3
Cc1noc(C)c1NC(=O)Nc1ccc2c(c1)CC(=O)N([C@@H](C)CO)C[C@@H](C)[C@H](CN(C)Cc1ccc(-c3ccccc3)cc1)O2	-29.9	-24.4
CCCC[C@@H](O)C1=C(COC)C[C@H]2C(=O)N(Cc3ccccc3)C(=O)[C@H]2[C@H]1CO	-1.2	-1.3

By substructure, the compounds so far with a halogen.
SMILES	Vaccinia stage	Vaccinia stage Venus
O=C(NCC[C@H]1CC[C@H](NC(=O)C2CCOCC2)[C@@H](CO)O1)Nc1ccc(Cl)cc1	2.7	7.7
C[C@@H]1CN([C@H](C)CO)C(=O)c2cc(-c3ccc(F)cc3)cnc2O[C@@H]1CN(C)C(=O)CN(C)C	11.1	12.1
CCCNC(=O)N1[C@@H](CO)[C@H](c2ccccc2)[C@@H]1CNC(=O)c1cccc(F)c1	-7.2	3.9

Remaining list, next part
SMILES	Vaccinia stage	Vaccinia stage Venus
CO[C@@H]1CN(C)C(=O)c2cc(NC(=O)NC(C)C)ccc2OC[C@H](C)N(CC2CC2)C[C@@H]1C	4.0	-3.4
C/C=C/c1ccc([C@H]2[C@H](CO)N3C(=O)CN(Cc4ccccc4)C[C@@H]23)cc1	7.4	5.4
Cc1noc(C)c1NC(=O)N(C)C[C@@H]1Oc2ccc(NS(=O)(=O)c3ccc(F)cc3)cc2CC(=O)N([C@H](C)CO)C[C@@H]1C	7.0	21.9
C[C@H](O)C#Cc1cnc2c(c1)C(=O)N([C@H](C)CO)C[C@H](C)[C@H](CN(C)C(=O)Cc1ccccn1)O2	19.3	9.9
C[C@H]1CN([C@@H](C)CO)C(=O)c2cccc(NS(=O)(=O)c3ccc(Cl)cc3)c2O[C@H]1CN(C)Cc1ccc(Cl)c(Cl)c1	?	.
O=C(NCC[C@H]1CC[C@H](NS(=O)(=O)c2cccc(F)c2)[C@H](CO)O1)c1cnccn1	7.0	0.6
Cc1noc(C)c1NC(=O)N[C@@H]1C=C[C@H](CC(=O)NCc2ccc(Cl)c(Cl)c2)O[C@H]1CO	7.3	1.4
O=C(C[C@H]1C[C@H]2c3cc(NC(=O)CC4CC4)ccc3O[C@H]2[C@@H](CO)O1)NCc1ccccc1F	3.9	2.9
C/C=C/c1ccc([C@H]2[C@@H](CO)N(CC3CC3)[C@@H]2CNC(=O)NC(C)C)cc1	-7.3	2.0
C[C@H](CO)N1C[C@H](C)[C@H](CN(C)C(=O)Nc2ccc3c(c2)OCCO3)OCc2cnnn2CCCC1=O	11.1	2.3
C[C@H]1CCCCO[C@H](CN(C)Cc2ccncc2)[C@@H](C)CN([C@@H](C)CO)C(=O)c2cc(NC(=O)Nc3ccc(C(F)(F)F)cc3)ccc2O1	?	.
Cc1nn(C)cc1NC(=O)C[C@@H]1CC[C@@H]2[C@@H](COc3ccc(NC(=O)c4cccc(F)c4)cc3C(=O)N2C)O1	2.2	7.7
C[C@@H]1CN([C@H](C)CO)C(=O)c2cc(C#Cc3ccc(F)cc3)cnc2O[C@H]1CN(C)Cc1ccccn1	-24.7	-20.0
O=C(CCN1CCCCC1)NCC[C@@H]1CC[C@H](NC(=O)c2ccc(F)cc2)[C@H](CO)O1	17.7	19.7
O=C(Cc1ccccn1)N1CC2(C1)[C@@H](c1ccccc1)[C@H](CO)N2C(=O)c1ccncc1	3.1	1.8
CCCN1[C@@H]2Cn3c(ccc(/C=C/c4ccccc4)c3=O)[C@H]1[C@@H](C(=O)NCc1ccccn1)[C@@H]2CO	-12.2	-10.7
N#Cc1cccc(-c2ccc(C3[C@H]4CNC[C@@H]3N4Cc3cc(-c4ccccc4)on3)cc2)c1 (stereo partly specified)	?	6.0
CC(C)NC(=O)N(C)C[C@@H]1Oc2cc(C#CCN(C)C)ccc2S(=O)(=O)N([C@@H](C)CO)C[C@H]1C	2.1	2.6
COc1ccc(NC(=O)N2CC(=O)N3[C@H](CO)[C@@H](c4ccc(C5=CCCC5)cc4)[C@H]3C2)cc1	-13.9	-18.1
Cc1noc(C)c1NC(=O)N(C)C[C@@H]1OCCCC[C@@H](C)Oc2ccc(NC(=O)Nc3cccc4ccccc34)cc2C(=O)N([C@@H](C)CO)C[C@@H]1C	10.1	12.0
COc1cccc(S(=O)(=O)N(C)C[C@@H]2OCc3ccccc3-c3ccccc3C(=O)N([C@@H](C)CO)C[C@@H]2C)c1	-25.1	-27.9
C[C@H](CO)N1C[C@H](C)[C@H](CN(C)S(=O)(=O)c2ccc(Cl)cc2)OCCCC[C@H](C)Oc2ccc(NC(=O)C3CCCCC3)cc2C1=O	?	.
C[C@H](CO)N1C[C@H](C)[C@H](CN(C)C(=O)Nc2ccc(C(F)(F)F)cc2)Oc2ccc(NS(C)(=O)=O)cc2C1=O	27.2	19.0
C[C@H](CO)N1C[C@H](C)[C@@H](CN(C)Cc2ccccn2)Oc2cc(-c3cccnc3)ccc2S1(=O)=O	-3.4	-4.6
COc1ccc(S(=O)(=O)N(C)C[C@H]2Oc3cc(C4=CCCC4)ccc3S(=O)(=O)N([C@H](C)CO)C[C@H]2C)cc1	-21.6	-14.9
SMILES	Vaccinia stage	Vaccinia stage Venus
O=C1CNC[C@H]2[C@H](c3ccc(Br)cc3)[C@@H](CO)N12	-2.9	-6.3
CC(C)C#Cc1ccc([C@H]2[C@@H](CO)N3C(=O)CN(C(=O)Cc4ccccc4)C[C@H]23)cc1	?	.
COCC(=O)N1[C@H](C#N)[C@H](c2ccccc2)[C@@H]1CO	24.2	12.6
NC(=O)NCC#Cc1ccc2c(c1)[C@]1(C(=O)N2)[C@H](C(=O)O)[C@H]2C(=O)O[C@H](c3ccccc3)[C@H](c3ccccc3)N2[C@@H]1c1ccccc1OCCO	26.3	13.4
O=C(C[C@H]1CC[C@@H](NS(=O)(=O)c2ccccc2)[C@H](CO)O1)N1CCN(c2ccccc2)CC1	13.1	7.1
C[C@@H]1CN([C@@H](C)CO)C(=O)c2cc(C#CC3CC3)cnc2O[C@@H]1CN(C)C(=O)Nc1ccc(F)cc1	-5.5	-0.5
O=C(c1ccccc1F)N1CC(=O)N2[C@H](C1)[C@@H](c1ccc(-c3ccccc3)cc1)[C@@H]2CO	-11.6	-9.9
Cc1noc(C)c1S(=O)(=O)Nc1ccc2c(c1)C(=O)N([C@H](C)CO)C[C@@H](C)[C@H](CN(C)Cc1ccccc1)OCCCC[C@H](C)O2	?	.
COc1ccc(S(=O)(=O)Nc2ccc3c(c2)C(=O)N([C@@H](C)CO)C[C@H](C)[C@H](CN(C)S(=O)(=O)c2cccs2)OCCCC[C@H](C)O3)cc1	-32.1	-22.9
N#C[C@H]1[C@H](c2ccc(-c3cccc(F)c3)cc2)[C@H](CO)N1S(=O)(=O)c1cccc(F)c1	?	.
C[C@H]1CN([C@@H](C)CO)C(=O)Cc2cc(NC(=O)C3CCCCC3)ccc2O[C@@H]1CN(C)C(=O)Nc1ccccc1	-12.0	-5.2
CCC(=O)N1[C@@H]2c3cccc(=O)n3C[C@@H]2[C@@H](CO)[C@@H]1C(=O)NC1CCCCC1	18.9	12.6
COc1ccc(S(=O)(=O)N2CC[C@@H]3[C@H]2c2cc(-c4cccc(C#N)c4)ccc2N[C@@H]3CO)cc1	-12.5	-13.1
C[C@H]1CN([C@@H](C)CO)C(=O)c2cccc(NC(=O)NC3CCCCC3)c2O[C@H]1CN(C)Cc1ccc(C(=O)O)cc1	-0.6	-3.1
C[C@@H]1CN([C@H](C)CO)C(=O)Cc2cc(NS(=O)(=O)c3cccs3)ccc2O[C@@H]1CN(C)Cc1ccc2c(c1)OCO2	-7.0	0.7
Cc1ccc(S(=O)(=O)Nc2ccc3c(c2)C(=O)N([C@H](C)CO)C[C@H](C)[C@@H](CN(C)C(=O)CCC(F)(F)F)OCCCC[C@H](C)O3)cc1	15.5	1.2
CO[C@H]1CN(C)C(=O)c2cc(NC(=O)c3cnccn3)ccc2OC[C@@H](C)N(C(=O)C2CC2)C[C@@H]1C	15.0	3.0
COc1ccc(CN(C)C[C@@H]2OCCCC[C@@H](C)Oc3ccc(NS(=O)(=O)c4ccccc4)cc3C(=O)N([C@H](C)CO)C[C@H]2C)cc1	-33.1	-30.4
C[C@H](CO)N1C[C@H](C)[C@@H](CN(C)CC2CC2)Oc2ccc(NC(=O)Cc3cn(C)c4ccccc34)cc2CC1=O	-22.0	-11.7
Cc1noc(C)c1NC(=O)N(C)C[C@H]1Oc2ccc(NC(=O)Nc3ccc4c(c3)OCO4)cc2C(=O)N([C@H](C)CO)C[C@@H]1C	10.5	4.8
Cc1noc(C)c1S(=O)(=O)Nc1ccc2c(c1)CC(=O)N([C@H](C)CO)C[C@H](C)[C@H](CN(C)C(=O)Nc1ccc(F)cc1)O2	25.6	18.0
CCCN(C[C@H]1[C@H](c2ccccc2)[C@@H](CO)N1C(C)=O)C(=O)NC(C)C	12.6&14.2	4.5&8.9
OC[C@H]1[C@@H](c2ccc(-c3ccc(F)cc3)cc2)[C@H]2CN(CCC(F)(F)F)CCCCN21	?	.
C[C@@H]1CN([C@@H](C)CO)S(=O)(=O)c2ccc(Br)cc2O[C@H]1CN(C)Cc1ccccc1	?	.
COCC#Cc1ccc([C@@H]2[C@@H](CO)N3C(=O)CN(C(=O)Nc4ccccc4F)C[C@H]23)cc1	-2.4	0.8
CCc1cnc(N2[C@H](C#N)[C@@H](c3ccccc3)[C@@H]2CO)s1	-0.7	4.5
O=C(c1ccc(F)cc1)N1CCCCN2[C@H](CO)[C@H](c3ccc(C#CC4(O)CCCC4)cc3)[C@@H]2C1	3.7	-3.4
CC(C)NC(=O)Nc1ccc2c(c1)CC(=O)N([C@H](C)CO)C[C@H](C)[C@@H](CN(C)C(=O)Nc1ccccc1)O2	12.8	11.1
O=C(c1ccc2c(c1)OCO2)N1CC2(C1)[C@H](c1ccccc1)[C@@H](CO)N2C(=O)C1CCC1	7.6	10.6
CN(C)CC(=O)N1CC2(C1)[C@@H](c1ccccc1)[C@@H](CO)N2C(=O)C1CCCC1	11.1	15.9

Single records, from the list above:
NC(=O)NCC#Cc1ccc2c(c1)[C@]1(C(=O)N2)[C@H](C(=O)O)[C@H]2C(=O)O[C@H](c3ccccc3)[C@H](c3ccccc3)N2[C@@H]1c1ccccc1OCCO across the screens: Vaccinia stage: 26.3; Vaccinia stage Venus: 13.4
CO[C@H]1CN(C)C(=O)c2cc(NC(=O)c3cnccn3)ccc2OC[C@@H](C)N(C(=O)C2CC2)C[C@@H]1C across the screens: Vaccinia stage: 15.0; Vaccinia stage Venus: 3.0
